# Bioassay records as filed in PubChem BioAssay.
# Cruzain inh noDet: blocks cruzain activity in detergent-free assay. purified cruzain, Z-FR-AMC fluorescence, no detergent. Potency, µM, without a hit: max response, negative = inhibition, hits mostly inhibitors. actives 2.3% (n = 200,000). AID 1476; active = well fitted curve in the direction sought with a large enough effect; inconclusive = small, poorly fitted or top-dose-only effect, or another doubt; inactive = no such curve, though single readings can be large; an effect the other way counts as inactive or inconclusive;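 note: plate controls were enzyme without inhibitor for no effect and buffer without enzyme for full effect; nearly all actives have a fitted effect of over 40% in size; top concentration of the series not given in the record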
# Target sequence (P25779 123-467 limits assumed): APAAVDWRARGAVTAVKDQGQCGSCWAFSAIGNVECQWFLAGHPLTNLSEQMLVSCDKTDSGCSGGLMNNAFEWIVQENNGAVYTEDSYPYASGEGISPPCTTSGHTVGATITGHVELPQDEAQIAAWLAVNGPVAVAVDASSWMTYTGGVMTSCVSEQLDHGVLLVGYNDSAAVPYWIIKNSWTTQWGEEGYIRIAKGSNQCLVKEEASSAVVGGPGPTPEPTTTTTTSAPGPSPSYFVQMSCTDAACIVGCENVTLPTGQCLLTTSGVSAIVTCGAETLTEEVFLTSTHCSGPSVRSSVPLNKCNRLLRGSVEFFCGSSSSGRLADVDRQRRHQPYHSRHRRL
#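 Purified cruzain at 1.5 nM, pre-incubated 15 min with compound at room temperature in 100 mM sodium acetate pH 5.5, 5 mM DTT, 0.00005% Triton X-100. Reaction started with 2 uM Z-FR-AMC; AMC fluorescence increase over 60 s gives rate.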
# SARS PLP yeast: SARS-CoV PLP inhibition in yeast; S. cerevisiae expressing SARS-CoV PLpro, growth rescue; control for the full effect not named in the record; actives 0.19% (n = 330,000); Potency, µM (titrated, usually from 32.9 µM), for inactives: at the top dose activity, positive = growth rescue; note: 0% is about no effect; nearly all actives have a fitted effect of over 55% in size; growth read by luminescence after 48 h
# LASV entry inh: Lassa virus entry inhibition. Lassa virus pseudotype entry inhibition, cell reporter; control for the full effect not named in the record. actives 1.2% (n = 300,000). Potency, µM (series often up to 37.9 µM), for the others: at the highest dose activity change, negative = inhibition, most hits filed as inhibitors; active means well fitted inhibition curve with a large enough effect; inconclusive means small, poorly fitted or top-dose-only effect, or effect the other way; inactive means flat fitted curve, though single readings scatter; tested in HEK293 cells; note: % is set by controls: 0 for no effect and ±100 for the full control effect; nearly all actives have a fitted effect of over 50% in size; luciferase read-out
# Cruzain Triton: cruzain (T. cruzi) inhibition with detergent; P25779; actives 0.43% (n = 200,000); Potency, µM, inactives show max response, negative = inhibition, actives largely listed as inhibitors; purified cruzain, Z-FR-AMC fluorescence, 0.01% Triton; active = well fitted curve in the direction sought with a large enough effect; inconclusive = small, poorly fitted or top-dose-only effect, or another doubt; inactive = no such curve, though single readings can be large; an effect the other way counts as inactive or inconclusive;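 note: plate controls were neutral wells for no effect and buffer without enzyme for full effect; nearly all actives have a fitted effect of over 40% in size; top concentration of the series not given in the record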
#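 In this qHTS format, compounds are incubated with 1.5 nM cruzain for 15 min at room temperature before 2 uM Z-FR-AMC is added. Release of AMC is followed at 360/450 nm, and progress is taken as the 60 s fluorescence difference.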
# StopGo reporter: FMDV 2A StopGo reporter, luciferase signal | human cells with a luciferase reporter of 2A StopGo recoding; control for the full effect not named in the record | Potency, µM (series often up to 57.9 µM), for inactives: top-dose signal change, negative = less light | actives 1.2% (n = 410,000) | AID 1159524; active = well fitted falling curve with a large enough effect; inconclusive = small, poorly fitted or top-dose-only effect; inactive = no such curve, though single readings can be large or run the other way; tested in HEK293T cells; note: % is set by controls: 0 for no effect and ±100 for the full control effect; nearly all actives have a fitted effect of over 45% in size; luciferase light after 4 h
# RE007 growth inh: less growth of the S. pombe RE007 Vpr strain. S. pombe RE007 Vpr strain, BacTiter-Glo ATP luminescence, 24 h; control for the full effect not named in the record. Potency, µM (titrated, usually from 92.2 µM), for inactives: top-dose activity change, negative = less growth. actives 0.21% (n = 360,000); active = well fitted falling curve with a large enough effect; inconclusive = small, poorly fitted or top-dose-only effect; inactive = no such curve, though single readings can be large or run the other way;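 note: % is set by controls: 0 for no effect and ±100 for the full control effect; nearly all actives have a fitted effect of over 50% in size; the assay follows cell death caused by Vpr and the record does not say whether a fall means rescue or toxicity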
#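 Fission yeast strain RE007, carrying one chromosomally integrated HIV-1 vpr copy, was seeded at OD 0.01 in PMG+AL medium with 23 nL pinned compound. After 24 h at 30 °C and 99% humidity, viability was read by BacTiter-Glo luminescence.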
# Marburg entry inh: inhibitors of Marburg virus binding or cell entry | Marburg virus pseudotyped entry inhibition, cell reporter; control for the full effect not named in the record; about a third of the inactives were read at about 46 µM | Potency, µM (highest dose often 37.8 µM), inactives show at the highest dose activity change, negative = inhibition, usual class: inhibitors | actives 1.8% (n = 300,000); active = well fitted inhibition curve with a large enough effect; inconclusive = small, poorly fitted or top-dose-only effect, or effect the other way; inactive = flat fitted curve, though single readings scatter; tested in HEK293 cells; about a fifth of its hits are not listed in these tables; note: % is set by controls: 0 for no effect and ±100 for the full control effect; luciferase read-out
# NS1 inh: blocks influenza NS1 protein function; S. cerevisiae slowed by influenza A NS1, growth recovery by OD600; actives 0.4% (n = 270,000); Potency, µM (titrated, usually from 46.1 µM), without a hit: at the top dose activity, positive = more growth; note: actives are rising curves; nearly all actives have a fitted effect of over 50% in size
#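 Compounds were scored for reversing the slow growth caused by influenza A NS1 in S. cerevisiae, measured by optical density at 600 nm. Assay medium contained 2% galactose at pH 6.0; NS1-free yeast of the same strain were the positive control.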
# * marks the source's active call; other numbers are inactive results; ? = inconclusive; · = not tested or not shown; & = joins results of further samples; [ ] = another dose, or the depositor's remark. Unless noted, calls come from the whole dose curve; as a rule, active means well fitted rising curve with a large enough effect; inconclusive means small, poorly fitted or top-dose-only effect; inactive means no such curve, though single readings can be large or run the other way. Potency is the fitted concentration of half-maximal effect.
SMILES,Cruzain inh noDet,SARS PLP yeast,LASV entry inh,Cruzain Triton,StopGo reporter,RE007 growth inh,Marburg entry inh,NS1 inh
Cc1cc(/C=N/O)c(C)n1-c1cccc(Cl)c1,·,1%,?,·,-18%,15%,?,16%
CC(C)Oc1ccccc1C1NC(=O)CCC1[N+](=O)[O-] (configuration not stated),·,2%,22%[46.1 µM],·,-20%,8%,2%[46.1 µM],0%
O=C1C=C(NCc2ccc(Cl)cc2)CCC1,7%,-12%,?,-2.6%,-15%,15%,2%,1%
Cc1ccc(N2CC(NC(=O)C3CCCC3)CC2=O)cc1 (configuration not stated),3%,·,7%[46.1 µM],-1.5%,-8%,·,·,·
CN1CCN(/N=C/c2cccc(Cl)c2Cl)CC1,-9%,-29%,·,-6.5%,49%[activator],-2%,·,-2%
CCOC(=O)CSc1nc2ccccc2c(=O)n1CCCCCC(=O)NCc1ccco1,4%,-3%,-12%,-0.6%,-28%,-2%,-24%&-24%,5%
Cn1cnc(S(=O)(=O)N2CCCC(C(=O)NCc3ccccc3)C2)c1 (configuration not stated),-2%,·,2%[46.1 µM],0.4%,11%,·,·,·
O=C(CN1C(=O)/C(=C2/SC(=S)N(CCS(=O)(=O)O)C2=O)c2ccccc21)Nc1cccc(Br)c1,·,0%,1%[46.1 µM],·,-4%,-1%,3%[46.1 µM],·
O=c1cc(CN2CCN(C/C=C/c3ccccc3)CC2)c2cc(O)ccc2o1,-5%,-4%,?,-2.6%,?,7%,-23%,-9%
Cc1nn(C)cc1NC(=O)Cn1nc(C(F)(F)F)cc1C1CC1,2%,7%,4%,-2.9%,-23%,3%,6%,1%
O=C(NC1CCCCC1)/C(=C/c1ccc(Cl)cc1)NC(=O)c1ccccc1,8%,·,?,-1.2%,2%,·,·,·
COC(=O)c1c(N2C(=O)[C@H]3[C@@H](C2=O)[C@]2(C(=O)Nc4c(C)cc(C)cc42)N2CCC[C@@H]32)sc(C)c1C,·,3%,-26%[46.1 µM],·,-9%,-2%,?,·
Cc1ccc(-c2nc3n(n2)C(c2ccccc2Cl)C=C(c2ccc(Cl)cc2)N3)cc1 (configuration not stated),-7%,·,-2%[46.1 µM],-2.8%,-3%,·,-27%[46.1 µM],·
COc1cc2c(cc1OC)C(COc1ccc(F)cc1)N(C(=O)Cc1ccc(F)cc1)CC2 (configuration not stated),16%,·,?,0.2%,?,·,·,·
CCn1nccc1C(=O)Nc1nccs1,6%,-2%,5%,4.0%,-11%,17%,1%,-1%
O=C(Nc1ccc(Oc2cccc3ccccc23)cc1)c1ccco1,-13%,-39%,?,-0.6%,0%,-7%,?,-150%
O=C(NCC1CCCN1S(=O)(=O)c1cccs1)C(=O)Nc1cccc(F)c1 (configuration not stated),·,1%,-7%,·,23%,12%,-9%,·
COc1ccc(Nc2ccc(N3C(=O)CCCC3=O)cc2[N+](=O)[O-])c(OC)c1,11%,-10%,-1%,-5.9%,-16%,-9%,8%,-3%
Cc1ccccc1C(=O)N1CCc2cc(-c3csc(NC(=O)CN4CCCC4)n3)ccc21,·,-2%,?,·,-22%,-4%,?,5%
Nc1cc(Nc2ccccc2)c2nonc2c1[N+](=O)[O-],·,2%,·,·,-6%,-12%,·,-1%
O=C(O)CC1S/C(=N\N=C2\C(=O)Nc3ccccc32)N(c2ccc(O)cc2)C1=O (configuration not stated),·,0%,·,·,-12%,3%,·,3%
CCc1cc(=O)oc2cc(OCC=C(C)C)ccc12,3%,-40%,-9%,-7.6%,8%,-15%,-7%,-32%
COc1ccc(NC(=O)c2cc3c(=O)n4ccccc4nc3n2C)cc1OC,·,-2%,?,·,-12%,-4%,?,·
Cc1cc(NC(=O)CSc2cn(CC(=O)N(C(C)C)C(C)C)c3ccccc23)no1,·,0%,-2%[46.1 µM],·,-6%,-6%,-13%[46.1 µM],12%

# Pulled by compound from the list above (four):
SMILES,Cruzain inh noDet,SARS PLP yeast,LASV entry inh,Cruzain Triton,StopGo reporter,RE007 growth inh,Marburg entry inh,NS1 inh
O=C(NC1CCCCC1)/C(=C/c1ccc(Cl)cc1)NC(=O)c1ccccc1,8%,·,?,-1.2%,2%,·,·,·
Nc1cc(Nc2ccccc2)c2nonc2c1[N+](=O)[O-],·,2%,·,·,-6%,-12%,·,-1%
COC(=O)c1c(N2C(=O)[C@H]3[C@@H](C2=O)[C@]2(C(=O)Nc4c(C)cc(C)cc42)N2CCC[C@@H]32)sc(C)c1C,·,3%,-26%[46.1 µM],·,-9%,-2%,?,·
CCOC(=O)CSc1nc2ccccc2c(=O)n1CCCCCC(=O)NCc1ccco1,4%,-3%,-12%,-0.6%,-28%,-2%,-24%&-24%,5%

# Next section:
SMILES,Cruzain inh noDet,SARS PLP yeast,LASV entry inh,Cruzain Triton,StopGo reporter,RE007 growth inh,Marburg entry inh,NS1 inh
Cc1cccc(NC(=S)NCc2ccc(F)cc2)c1C,·,23%,?,·,20%,9%,-2%,-26%
O=C(Nc1cc(Cl)ccc1Cl)c1cc(-c2ccco2)on1,·,3%,-4%[46.1 µM],·,-31%,-3%,-23%[46.1 µM],1%
C=CCOCC(O)Cn1c(N2CCCC2)nc2c1c(=O)[nH]c(=O)n2C (configuration not stated),·,2%,·,·,-9%,13%,·,12%
Cn1ncc(N2CCN(C(=O)c3ccc(Cl)cc3)CC2)c(Cl)c1=O,·,1%,1%[46.1 µM],·,-11%,-3%,28%[46.1 µM],0%
O=C(Nc1cccc(F)c1)c1ccc(-c2ccccc2Cl)o1,-12%,-67%,?,-1.6%,34%[activator],-19%,-23%,-77%
CC(=O)N(C1=NCCCS1)c1ccc(Cl)cc1,·,2%,?,·,-16%,-4%,?,·
O=C(CC1Sc2ccccc2NC1=O)NNc1cc(Cl)ccc1Cl (configuration not stated),·,·,-22%[46.1 µM],·,-10%,22%,-24%[46.1 µM],·
N=C1C(c2nc(-c3ccc(F)cc3)cs2)=C(O)CN1Cc1ccc(Cl)cc1,?,15%,-9%,-2.2%,-25%,3%,?,4%
Cc1c(N=Cc2c(O)n(Cc3ccco3)c(=O)[nH]c2=O)c(=O)n(-c2ccccc2)n1C,-5%,-1%,2%,-3.0%,-24%,7%,1%,8%
Cc1cccc(NC(=O)CCC(=O)OCC(=O)c2ccc(Oc3ccc([N+](=O)[O-])cc3)cc2)c1,-20%,-35%,18%,-21%,-14%,-5%,-12%,-10%
COC(=O)c1ccc(Cn2nc(C)c(Cl)c2C)o1,-8%,3%,4%,5.8%,-23%,-22%,-1%,-20%
CCOc1ccc(NC(=O)CN(C)C(=O)c2ccc(COc3ccccc3)cc2)cc1OCC,·,3%,-5%,·,-19%,9%,1%,·
COc1ccc(C(CNC(=O)COc2cc(C)cc(C)c2)N2CCOCC2)cc1 (configuration not stated),1%,·,-10%[46.1 µM],-1.1%,-11%,·,1%[46.1 µM],·
COc1ccc(Cn2c(SCC(=O)NCc3ccco3)nc3ccsc3c2=O)cc1,-12%,2%,-4%,-3.7%,5%,-9%,?,2%
NC(=O)c1cc(NC(=O)CCc2nc3ccccc3s2)cc(C(N)=O)c1,·,1%,0%,·,15%,-8%,10%,5%
O=C(COC(=O)/C=C/c1ccc(S(=O)(=O)N2CCc3ccccc32)cc1)NC1CCS(=O)(=O)C1 (configuration not stated),·,1%,3%,·,-23%,10%,-27%[46.1 µM],7%
NS(=O)(=O)c1ccc(N2N=C(c3ccccc3)CC2c2cccc(F)c2)cc1 (configuration not stated),?,-18%,?,12%,-16%,22%,?,29%
CCCSc1nnc(-c2cnn(-c3ccccc3)c2-n2cccc2)n1C,9%,-8%,-2%,-3.7%,-7%,20%,-5%,-3%
Cc1cnc2c(c1SCC(=O)NCc1ccccc1Cl)c(=O)n(C)c(=O)n2C,-11%,·,1%[46.1 µM],-1.4%,-19%,·,·,·
O=C1/C(=C\c2ccc(C(F)(F)F)cc2)CSc2sccc21,·,-1%,·,·,15%,11%,·,-6%
Cc1ccc(S(=O)(=O)N2CCC(NC(=O)c3cccc(C)c3)CC2)cc1,·,0%,-3%,·,9%,18%,10%[46.1 µM],4%
O=C(Cc1cccc2ccccc12)NCCC1=CCCCC1,1%,-18%,-28%,-5.5%,-11%,2%,-28%,-14%
Fc1ccc(/C=N/Nc2nc(-c3cccnc3)nc3ccccc23)cc1,·,-3%,?,·,-21%,-30%,?,25%
COc1cc(C2SCC(=O)N2c2nnc(C34CC5CC(CC(C5)C3)C4)s2)cc(OC)c1OC (configuration not stated),10%,7%,-22%,1.7%,·,-4%,-6%,0%
COc1ccc(NC(=O)Cn2c(=O)n(-c3ccc(C)c(C)c3)c(=O)c3c(C)c(C)sc32)cc1,-4%,·,-4%[46.1 µM],1.8%,-14%,·,4%[46.1 µM],·
COc1ccc(C)cc1NC(=O)c1ccc2c(Cl)c3c(nc2c1)CCC3,-11%,·,4%[46.1 µM],-1.2%,16%,·,-11%[46.1 µM],·
Cc1ccc(-c2nc(CS(=O)(=O)CC(=O)NCCCN(Cc3ccccc3)C(C)C)c(C)o2)cc1,·,6%,·,·,-24%,-15%,·,19%
O=C(NCc1ccc(F)cc1)c1ccc(CSCc2cccc(Cl)c2)o1,-6%,·,-15%[46.1 µM],-4.3%,-3%,·,·,·
O=C(N/N=C/c1ccc(Cl)cc1Cl)C1CCN(c2ncc(C(F)(F)F)cc2Cl)CC1,5%,0%,·,5.1%,·,·,4%,13%
O=C(O)C1C(c2ccccc2)c2ccccc2C(O)C1CO (configuration not stated),·,·,-17%[46.1 µM],·,24%,34%,-1%[46.1 µM],·

# Single records (already shown). Order of values: Cruzain inh noDet, SARS PLP yeast, LASV entry inh, Cruzain Triton, StopGo reporter, RE007 growth inh, Marburg entry inh, NS1 inh
# O=C(O)CC1S/C(=N\N=C2\C(=O)Nc3ccccc32)N(c2ccc(O)cc2)C1=O (configuration not stated) as listed: ·, 0%, ·, ·, -12%, 3%, ·, 3%
# NS(=O)(=O)c1ccc(N2N=C(c3ccccc3)CC2c2cccc(F)c2)cc1 (configuration not stated) as listed: ?, -18%, ?, 12%, -16%, 22%, ?, 29%

# Compounds were not picked by outcome; about 4.5% have a hit in one of these screens.
